HCMV UL50-53 inh: inhibitors of HCMV UL50-UL53 interaction, biochemical, HTRF; 190,000 tested, 0.15% active; normalized percent inhibition; HCMV UL50-UL53 nuclear egress complex (human cytomegalovirus); inhibition, % (test concentration not listed);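 active means both replicates at 50% or more, plus weaker picks with an unusually low signal ratio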;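 further: stock transfer was 100 nL into about 20 µL; 0% = negative control wells and 100% = wells with untagged competitor protein; inactives centre near -12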
Sa growth 42C: S. aureus growth inhibition at 42 and 30 °C, primary screen, LtaS inhibitor project, RN4220, two temperatures; OD600, 20 h, 42 °C; stronger effect = lower value; relative growth, % (test concentration not listed); 170,000 tested, 0.53% active; AID 720641, 2013;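 active means growth at 42 °C up to 50% and 20 or more points under that at 30 °C, or under 10% at both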;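 further: 300 nL library stock went into each well; scaled to the means of positive and negative controls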
GIV Gai3 FP: inhibitors of GIV peptide binding to Galpha-i3, primary screen, biochemical, fluorescence polarization, FITC-GIV GBA peptide, rat Galphai3. Guanine nucleotide-binding protein G(i) subunit alpha-3 (Rattus norvegicus), P08753. 90 min; stronger effect = lower value; scaled: aluminum fluoride 0%, vehicle 100%. percent of control (FP), % (test concentration not listed). 210,000 tested, 0.42% active. AID 1224905, 2016;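 active means replicate mean at 85% of control or lower, very high polarization wells dropped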;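 further: wells of about 15 µL received 100 nL stock; the first replicate is given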
Target sequence (P08753 whole entry, looked up): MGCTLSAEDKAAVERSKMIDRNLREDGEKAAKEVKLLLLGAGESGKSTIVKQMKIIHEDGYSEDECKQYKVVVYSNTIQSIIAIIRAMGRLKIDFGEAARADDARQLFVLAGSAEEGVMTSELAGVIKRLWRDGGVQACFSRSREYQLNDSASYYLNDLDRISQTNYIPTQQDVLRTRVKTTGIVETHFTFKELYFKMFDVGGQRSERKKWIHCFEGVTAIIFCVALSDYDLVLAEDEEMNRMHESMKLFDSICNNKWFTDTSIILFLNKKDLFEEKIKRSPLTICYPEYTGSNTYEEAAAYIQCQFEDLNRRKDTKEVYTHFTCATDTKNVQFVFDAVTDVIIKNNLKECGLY
Sa growth 42C second temp: recorded beside Sa growth 42C, whose call it bears; relative growth, %; measured here: growth at 30 °C;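 optical density after 20 h as mean of two plates; 100% = untreated growth and lower means inhibition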
Active calls of the source: *; / = not tested or not shown; & = joins results of further samples.

The opening 4 compounds as a preview:
Every second line gives: GIV Gai3 FP | HCMV UL50-53 inh | Sa growth 42C | Sa growth 42C second temp
#1 COc1ccc(CCNC(=O)CSc2nc(C)nc3c2c(=O)n(C)c(=O)n3C)cc1OC
    100.2 | -9.5 | 92.0 | 87.7
#2 O=C(O)c1ccc2cc[nH]c2c1
    108.3 | 8.7 | 103.2 | 98.8
#3 COc1ccc(-n2nc3c(N4CCC(C(=O)NCc5ccccc5C)CC4)nnc(C)c3c2C)cc1
    112.0 | / | 133.8 | 94.0
#4 COc1ccc(-c2cn3c(n2)sc2cc(C(=O)Nc4ccc(C)cc4C)ccc23)cc1
    106.4 | / | 129.4 | 104.5

This part in full, from the start:
Every second line gives: GIV Gai3 FP | HCMV UL50-53 inh | Sa growth 42C | Sa growth 42C second temp
#1 COc1ccc(CCNC(=O)CSc2nc(C)nc3c2c(=O)n(C)c(=O)n3C)cc1OC
    100.2 | -9.5 | 92.0 | 87.7
#2 O=C(O)c1ccc2cc[nH]c2c1
    108.3 | 8.7 | 103.2 | 98.8
#3 COc1ccc(-n2nc3c(N4CCC(C(=O)NCc5ccccc5C)CC4)nnc(C)c3c2C)cc1
    112.0 | / | 133.8 | 94.0
#4 COc1ccc(-c2cn3c(n2)sc2cc(C(=O)Nc4ccc(C)cc4C)ccc23)cc1
    106.4 | / | 129.4 | 104.5
#5 Cc1ccc(Nc2nc(N)nc(CN3CCN(S(=O)(=O)c4ccc5c(c4)CCC5)CC3)n2)cc1
    / | 1.2 | 107.0 | 88.0
#6 COc1ccccc1N1CCN(C(=O)CSc2nc3ccccc3nc2Cc2ccccc2)CC1
    102.6 | / | 83.8 | 89.9
#7 COc1cc(/C=c2\sc3n(c2=O)C(c2c(OC)ccc4ccccc24)C(C(C)=O)=C(C)N=3)cc(OC)c1OC (stereo not given)
    106.9 | -15.5 | / | /
#8 O=C(O)C1CCCc2c1[nH]c1ccc(Cl)cc21 (stereo not given)
    / | 2.5 | 82.2 | 74.2
#9 CC1=C(C#N)C(c2ccc(Cl)cc2)C(C(=O)Nc2ccccc2)=C(C)N1 (stereo not given)
    / | -11.7 | 122.4 | 91.2
#10 O=C(NCc1ccccn1)c1nc[nH]c1C(=O)NCc1ccccc1
    103.9 | -8.6 | / | /
#11 O=c1c(S(=O)(=O)c2cccc(F)c2)c[nH]c2c(F)cc(Cl)cc12
    104.4 | -27.1 | / | /
#12 COC(=O)c1c(O)c2ccccc2[nH]c1=S
    102.8 | -2.5 | 57.2 | 70.0
#13 COCCn1cnc2c1c(=O)n(Cc1ccc(Br)cc1)c(=O)n2Cc1ccccc1
    / | -26.6 | 86.0 | 77.2
#14 CCOc1ccc(C2C=C(N)Oc3nc(COC)[nH]c32)cc1OC (stereo not given)
    / | -10.5 | 108.6 | 79.5
#15 Cc1ccc(C2=NN(C(=O)COC(=O)C3CCN(S(=O)(=O)c4cccs4)CC3)C(c3ccco3)C2)cc1 (stereo not given)
    / | -6.9 | 106.1 | 70.0
#16 COc1ccc2nc(NC(=O)CCCCl)sc2c1
    / | -30.1 | 99.2 | 63.9
#17 O=C(NC1CCCCC1)C(Cc1ccccc1)NS(=O)(=O)c1cccc2cccnc12 (stereo not given)
    103.0 | -27.8 | / | /
#18 O=C(NCc1ccc(F)cc1)c1ccc(S(=O)(=O)c2ccccc2)nc1
    98.8 | -7.6 | / | /
#19 O=C(c1ccc(C#Cc2ccccc2)o1)N1CCCCC1
    101.3 | -8.4 | 57.0 | 78.4
#20 CCn1c(=O)cc(SCC(=O)NCc2ccccn2)c2ccccc21
    110.3 | -5.1 | 83.1 | 86.2
#21 Cc1nn(-c2ccc(F)cc2)c(Cl)c1/C=N/NC(=O)C1CC1
    / | -6.1 | 106.2 | 88.6
#22 O=C1Cc2c([nH]c3ccc(Br)cc23)-c2ccccc2N1
    108.9 | -25.5&-17.0&-36.8&-36.8&1.5 | / | /
#23 COc1ccccc1NS(=O)(=O)c1ccc2oc(SCC(=O)NC(N)=O)nc2c1
    / | 2.9 | 91.5 | 89.9
#24 CCOC(=O)c1cn(CC(=O)NN)nc1C(F)(F)F
    104.8 | 12.1 | 114.5 | 98.9
#25 O=C(CCC(=O)N1CCc2cc(S(=O)(=O)Nc3ccc4c(c3)OCO4)ccc21)N1CCOCC1
    97.4 | -20.2 | / | /
#26 O=C(CCSCc1cnn(-c2ccccc2)c1-n1cccc1)NCC1CCN(Cc2ccccc2F)CC1
    107.9 | 13.3 | / | /
#27 CCOc1ccc(-n2c(SC(C)C(=O)OC)nc3c([nH]c4ccccc43)c2=O)cc1 (stereo not given)
    98.2 | / | 106.4 | 92.5
#28 COc1ccc(NC(=O)C2(N(C(=O)c3ccc(-n4cnnn4)cc3)c3ccc(OC)cc3)CCCCC2)cc1
    106.4 | -28.4 | 70.6 | 74.6
#29 Cc1csc(SCC(=O)O)n1
    102.7 | -10.2 | 86.1 | 89.0
#30 CCOc1ccc(C(=O)NC)c(OCC)c1
    105.4 | -25.6 | 104.0 | 101.0
#31 C(=C\c1ccccc1)/CSc1nc2ccccc2[nH]1
    100.9 | / | 95.9 | 91.0
#32 COC(=O)c1c(NC(=O)CCCOc2ccccc2C)sc2c1CCC2
    108.3 | 5.5 | 101.5 | 92.4
#33 COC(=O)C(C)N1C(=O)S/C(=C/c2cc(C)n(-c3ccc4c(c3)OCO4)c2C)C1=O (stereo not given)
    99.3 | 1.5 | 105.0 | 103.8
#34 CCOC(=O)C(C)Sc1nc(C)cc(C)c1C#N (stereo not given)
    99.9 | -0.6 | 101.9 | 78.6
#35 Cc1ccc(S(=O)(=O)NC2(C(F)(F)F)NC(=O)N(c3ccc(F)cc3)C2=O)cc1 (stereo not given)
    97.0 | -58.9 | 98.4 | 87.6
#36 O=C(CN1CCN(Cc2ccccc2Cl)S1(=O)=O)NCc1ccccc1Cl
    100.4 | -28.2 | / | /
#37 O=C(O)c1ccccc1-c1ccc(/C=N/N2C(=O)C3C4C=CC(C4)C3C2=O)o1 (stereo not given)
    / | -81.7 | 82.3 | 79.1
#38 CCOc1ccc(-c2n[nH]c3c2C(c2ccccc2OC)N(c2ccc(Br)cc2)C3=O)cc1 (stereo not given)
    99.2 | -17.4 | 111.9 | 92.0
#39 OC(COc1ccc(Cl)c(Cl)c1)CN1CCC(Nc2nccc(C(F)(F)F)n2)CC1 (stereo not given)
    106.7 | / | 97.6 | 91.5
#40 Cc1ccc(O)c(NC(=O)c2cc(-c3ccccc3O)no2)c1
    116.6 | / | 105.5 | 87.7

3 structures out of the list, sorted by molecular weight, falling.
Every second line gives: GIV Gai3 FP | HCMV UL50-53 inh | Sa growth 42C | Sa growth 42C second temp
#38 CCOc1ccc(-c2n[nH]c3c2C(c2ccccc2OC)N(c2ccc(Br)cc2)C3=O)cc1 (stereo not given)
    99.2 | -17.4 | 111.9 | 92.0
#36 O=C(CN1CCN(Cc2ccccc2Cl)S1(=O)=O)NCc1ccccc1Cl
    100.4 | -28.2 | / | /
#34 CCOC(=O)C(C)Sc1nc(C)cc(C)c1C#N (stereo not given)
    99.9 | -0.6 | 101.9 | 78.6

Following part.
Every second line gives: GIV Gai3 FP | HCMV UL50-53 inh | Sa growth 42C | Sa growth 42C second temp
#41 CC1=C(C(=O)OCC(C)C)C(c2ccccc2F)CC(=O)N1 (stereo not given)
    94.3 | -22.2 | / | /
#42 CC(=O)Nc1ccc(NC(=O)c2nn(C)c(C(F)(F)F)c2Cl)cc1
    95.4 | 6.1 | / | /
#43 CC(C)c1ccc(NC(=O)C(NS(=O)(=O)c2ccc3c(c2)CCC(=O)N3)c2ccccc2)cc1 (stereo not given)
    100.7 | -41.9 | 83.5 | 78.9
#44 O=C(CSc1nnc2sc3ccccc3n12)N1CCc2ccccc2C1
    / | -2.3 | 110.3 | 72.7
#45 O=C1C2ON(c3ccccc3)C(c3ccncc3)C2C(=O)N1c1cccc(C(F)(F)F)c1 (stereo not given)
    103.6 | -14.5 | 100.4 | 87.8
#46 CCNc1nc2[nH]c(=O)c3c(c2s1)OC(N)=C(C#N)C3c1ccc(C)cc1 (stereo not given)
    116.9 | -35.3 | 102.3 | 67.4
#47 O=C1c2[nH]nc(-c3ccccc3O)c2C(c2ccccc2F)N1Cc1cccnc1 (stereo not given)
    103.3 | -14.2 | 94.8 | 90.2
#48 O=C(C1CC(c2ccc(Cl)cc2)=NO1)N1CCOCC1 (stereo not given)
    101.3 | -27.7 | / | /
#49 Cc1ccc(CN(C2CCCC2)S(=O)(=O)c2ccc(S(=O)(=O)N3CCCC(C)C3)cc2)o1 (stereo not given)
    104.0 | 1.3 | 112.4 | 99.8
#50 CSc1cccc(NC(=O)C2CCN(S(=O)(=O)c3c(C)n[nH]c3C)CC2)c1
    101.3 | / | 83.6 | 84.8
#51 CCc1nnc2c(N(C)C3CCCCC3)nc3ccccc3n12
    104.6 | 9.4 | 97.9 | 86.5
#52 O=c1n(-c2ccccc2)c(=O)n(Cc2ccccn2)n1Cc1ccccn1
    98.9 | -10.4 | 90.8 | 88.9
#53 c1ccc2c(c1)ncn2CCn1cnc2ccccc21
    106.2 | 7.5 | 102.0 | 88.0
#54 Cc1n[nH]c(C)c1C(C)C(=O)N1CCN(c2ccccn2)CC1 (stereo not given)
    103.9 | -28.5 | 97.2 | 86.4
#55 COc1ccc(C)cc1NS(=O)(=O)c1c(C)nc2sc(C)cn2c1=O
    110.9 | / | 92.4 | 74.9
#56 c1ccc(-c2cn(-c3ccccc3)c3ncnc(NCCCN4CCOCC4)c23)cc1
    101.1 | -24.5 | 92.5 | 45.7
#57 COc1ccc(C(=O)Nc2cc(S(=O)(=O)c3ccc(Cl)cc3)c(O)c(C)c2C)cc1
    101.6 | -18.0 | 105.1 | 88.5
#58 O=c1c2cccc3c2c(nn1-c1ccccc1)-c1ccccc1-3
    101.7 | -13.1 | / | /
#59 Fc1ccc(Cc2nn[nH]n2)c(Cl)c1
    103.0 | / | 99.4 | 84.4
#60 O=C(C1=C(O)/C(=C/c2cccc(O)c2)CCC1)C(F)(F)F
    102.2 | -5.3 | 68.0 | 45.0
#61 CCOc1ccc(CNC(=O)c2ccc3c(c2)nc2n3CCC(C)C2)cc1OC (stereo not given)
    98.6 | / | 102.1 | 93.0
#62 c1ccc(C(c2ccccc2)N2CCC2)cc1
    103.1 | 32.1 | 83.8 | 94.8
#63 CCN(CC)C(=O)n1nnc2ccccc21
    105.6 | -14.9 | 94.8 | 85.0
#64 Cc1ccc(NC(C)C(=O)N/N=C/c2cccnc2)cc1 (stereo not given)
    97.5 | -48.1 | 91.4 | 86.3
#65 Cc1c(C(=O)N2CCN(c3ccccc3)CC2)oc2ccc3c(c12)C(O)CC(C)(C)O3 (stereo not given)
    99.3 | -2.0 | / | /
#66 Cc1cc(C(=O)NCc2cccc(Cl)c2)c2ccccc2n1
    104.1 | -31.2 | / | /
#67 COc1ccc(-n2nc3c(c2NC(=O)c2ccc(S(=O)(=O)N4CCCCC4)cc2)CSC3)cc1
    102.4 | 31.6 | / | /
#68 CC(C)(C)OC(=O)Nc1ncnc2c1ncn2C1OC(CO)C2OC(C)(C)OC21 (stereo not given)
    97.9 | -22.1 | 91.1 | 83.2
#69 OCCSc1ncnc2sccc12
    / | -5.3 | 87.2 | 89.8
#70 O=C(c1cccnc1)N1N=C(C(F)(F)F)CC1(O)c1cccnc1 (stereo not given)
    93.0 | -7.7 | 62.5 | 62.7
#71 Cc1cc(C)n(-c2ccc(C(=O)O)cc2)n1
    / | -6.5 | 95.2 | 90.6
#72 Cc1cc(C)n(CC(O)COc2ccccc2C(=O)Nc2ccccc2)n1 (stereo not given)
    110.6 | -8.9 | 80.5 | 73.3
#73 CCOc1ccc2nc(N3CCC(C(=O)NCc4cccc(Cl)c4)CC3)sc2c1
    99.9 | -9.7 | / | /
#74 Cc1ccc(Cn2c(C)c(CNCC(C)c3ccccc3)c(C(=O)O)c2C)cc1 (stereo not given)
    101.7 | -18.5 | 102.4 | 94.2
#75 CCOC(=O)c1oc2ccc(Br)cc2c1COC(=O)c1cccnc1Cl
    / | -21.6 | 95.7 | 87.7
#76 COc1ccccc1C(=O)Nc1nnc2n1CCS2
    100.4 | / | 108.6 | 87.9
#77 O=C(NCCC1=CCCCC1)C1CCCN(c2ccnc(-c3ccc(F)cc3)n2)C1 (stereo not given)
    109.8 | -8.8 | / | /
#78 CC/C(O)=C1/C(=O)CC(C)(C)CC1=Nc1cccc2ccccc12
    / | -30.1 | 92.7 | 94.5
#79 CCCN1C(=S)NC2c3ccccc3OC1(C)C2C (stereo not given)
    103.4 | / | 93.5 | 86.4
#80 Cc1cc(C)n(-c2ccc(C(=O)NC(C)c3ccc(S(N)(=O)=O)cc3)cc2)n1 (stereo not given)
    / | -18.9 | 92.8 | 87.5
#81 O=C(O)COc1ccc2c(=O)c(-c3ccccc3)coc2c1
    98.5 | -17.3 | / | /
#82 O=C(Cn1ccc(=O)[nH]c1=O)NC1CCCCCC1
    / | -13.6 | 80.5 | 95.8

Compound profiles, as listed above. Values in the order: GIV Gai3 FP, HCMV UL50-53 inh, Sa growth 42C, Sa growth 42C second temp
`CCn1c(=O)cc(SCC(=O)NCc2ccccn2)c2ccccc21` is listed with 110.3, -5.1, 83.1, 86.2
`CC(C)(C)OC(=O)Nc1ncnc2c1ncn2C1OC(CO)C2OC(C)(C)OC21` (stereo not given) is listed with 97.9, -22.1, 91.1, 83.2

Compound activity: PubChem BioAssay, ICCB-Longwood Screening Facility, Harvard Medical School
